INS promoter inh = TRM-6 insulin promoter activity inhibition. TRM-6 cells (human fetal islet line), insulin promoter-eGFP reporter, imaging; reporter expression induced with tamoxifen. inhibition, % at 2 µM. 130,000 compounds, 0.9% hits. AID 1273;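 active = inhibition above the mean plus 3 SD, with well images judged a real hit on visual review, cut at about 60% in these data, passing the limit was not always enough; inconclusive = inhibition over the cutoff but images rejected on review; inactive = inhibition not above the cutoff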
HSV replic up = HSV replication enhancement | HSV replication augmentation in cells, fold increase | AID 1956 | 220,000 compounds, 0.005% hits | maximum fold increase;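 active = peak rise of 1.5-fold or more in the series; inconclusive = self-fluorescent or not available for retest; tested in PC3 cells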;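 also: first round at 10 µM; read as green reporter fluorescence; hits show the peak of a series up to 25 µM; 1 = signal of infected wells without compound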
RGS16-Gao HTS = RGS16-Galphao interaction regulator (human); O15492+P09471; bead-based flow cytometry RGS16-Galphao binding, fluorescence; actives lie on both sides; binding response (% of control), % at 10 µM; 220,000 compounds, 0.38% hits; AID 1441;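 active = below 25% or above 175%, edge rows of some plates excepted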;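 also: Galphao activated by GDP with aluminum fluoride before binding; 100% = wells without compound and 0% = beads without RGS; some results beyond the cut were filed as inactive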
GALR2 ag = agonists of human galanin receptor 2 (GALR2) | O43603 | GALR2-expressing cells, agonist activation read-out | activation, %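 (tested at 5 µM)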 | 140,000 compounds, 0.48% hits;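 active = above mean plus 3 SD of all compounds, about 5% in these data, not always enough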;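 also: 0% = vehicle buffer wells and 100% = reference agonist at full effect; tested in CHO reporter cells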
PKD1 kinase inh = blocks activity of human protein kinase D1 | inhibition, %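 (about 10 µM by stock and volumes)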 | Q15139 | 200,000 compounds, 0.056% hits | PKD1 kinase fluorescence polarization assay;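 active = inhibition of 50% or more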;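 also: controls were vehicle for no effect and a reference inhibitor for full effect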
Target sequence (Q15139 whole entry, looked up): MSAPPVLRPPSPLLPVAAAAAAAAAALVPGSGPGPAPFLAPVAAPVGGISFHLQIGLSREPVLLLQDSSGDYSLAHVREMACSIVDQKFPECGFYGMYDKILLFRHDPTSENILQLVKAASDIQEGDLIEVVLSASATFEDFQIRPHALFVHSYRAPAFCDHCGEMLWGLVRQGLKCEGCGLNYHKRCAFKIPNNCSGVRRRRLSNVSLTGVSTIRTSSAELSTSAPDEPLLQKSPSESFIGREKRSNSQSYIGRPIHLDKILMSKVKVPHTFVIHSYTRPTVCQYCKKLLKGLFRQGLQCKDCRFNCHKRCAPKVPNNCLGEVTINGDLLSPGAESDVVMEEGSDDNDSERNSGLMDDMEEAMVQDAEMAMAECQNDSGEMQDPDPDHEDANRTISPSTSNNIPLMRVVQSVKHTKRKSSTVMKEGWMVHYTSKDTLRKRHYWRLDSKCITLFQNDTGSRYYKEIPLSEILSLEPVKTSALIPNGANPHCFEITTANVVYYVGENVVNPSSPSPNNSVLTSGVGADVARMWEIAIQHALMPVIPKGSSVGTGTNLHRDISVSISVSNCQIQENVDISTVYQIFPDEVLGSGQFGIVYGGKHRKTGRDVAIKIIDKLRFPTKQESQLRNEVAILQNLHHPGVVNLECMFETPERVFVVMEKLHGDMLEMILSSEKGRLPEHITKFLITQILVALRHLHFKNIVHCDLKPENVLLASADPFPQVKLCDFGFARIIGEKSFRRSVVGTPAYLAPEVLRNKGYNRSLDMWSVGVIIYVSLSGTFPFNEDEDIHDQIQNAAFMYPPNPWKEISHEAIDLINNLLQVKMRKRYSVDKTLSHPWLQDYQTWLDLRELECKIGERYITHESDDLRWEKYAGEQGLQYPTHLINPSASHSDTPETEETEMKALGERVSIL
INS promoter inh cell count = second read-out of INS promoter inh, no call of its own (marks repeat the call); normalized cell count, %; measured here: cell count, toxicity; reference of the scale not given here;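 cells exposed to compound for 48 h; stained nuclei by imaging scaled within each plate; lower means fewer cells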
HSV replic up primary fold = further read-out of HSV replic up, marked with its call; fold increase; compound at 10 µM; measured here: primary screen fold increase 10 uM; tested in PC3 cells;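 GFP signal in the first replicate; 1 = infected wells without compound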
* hit, by the source's call; i = inactive; ? = inconclusive; · = no result given; & = joins results of further samples.

SMILES	INS promoter inh	INS promoter inh cell count	HSV replic up	HSV replic up primary fold	RGS16-Gao HTS	GALR2 ag	PKD1 kinase inh
CCOC(=O)N1CCN(C(=O)NC23CC4CC(CC(C4)C2)C3)CC1	-18.4	135.2	i	1	84.8	-1.1	-15.7
C[C@@H]1CCC[C@@]2(O[C@H](CCO)C[C@@H](O)[C@@H]2O)O1	-4.5	105.7	i	0.97	106.9	-2.1	-6.5
CCN(CC)c1ccc(/C=N/NC(=O)c2ccc([N+](=O)[O-])cc2)cc1	40.0	154.3	i	0.74	104.7	·	-3.4
CCOC(=O)NNC1CC(=O)N(c2ccccc2)C1=O (stereo not drawn)	8.3	85.7	i	1.08	101.9	-0.8	-7.0
Cc1ccc(S(=O)(=O)N2CCCC(C(=O)N3CCCc4ccccc43)C2)cc1 (stereo not drawn)	-220.0	121.7	i	0.98	98.8	-1.3	4.6
O=C(c1cnc2n(c1=O)CCS2)N1CCN(c2ccc(Cl)c(Cl)c2)CC1	-37.5	136.3	i	0.9	103.8	-1.4	-4.1
Cc1ccccc1NC(=O)OCc1cccnc1Oc1ccc(Cl)cc1	·	·	i	0.94	100.9	·	-0.4
N#Cc1ccc(-c2ccco2)nc1SCc1ccccc1	-91.7	103.7	i	0.9	94.9	-0.8	11.2
Cc1ccccc1OCC(=O)N/N=C/c1ccccn1	·	·	i	0.82	100.2	·	-3.6
COc1ccc(OC)c(C2CC(=O)N3CN(c4ccc(C)c(Cl)c4)CSC3=C2C#N)c1 (stereo not drawn)	·	·	i	0.9	94.0	-1.6	2.0

Whole records, looked up by structure. Screens in order: INS promoter inh | INS promoter inh cell count | HSV replic up | HSV replic up primary fold | RGS16-Gao HTS | GALR2 ag | PKD1 kinase inh
Cc1ccccc1NC(=O)OCc1cccnc1Oc1ccc(Cl)cc1 is entered as · | · | i | 0.94 | 100.9 | · | -0.4
O=C(c1cnc2n(c1=O)CCS2)N1CCN(c2ccc(Cl)c(Cl)c2)CC1 is entered as -37.5 | 136.3 | i | 0.9 | 103.8 | -1.4 | -4.1
N#Cc1ccc(-c2ccco2)nc1SCc1ccccc1 is entered as -91.7 | 103.7 | i | 0.9 | 94.9 | -0.8 | 11.2
CCOC(=O)N1CCN(C(=O)NC23CC4CC(CC(C4)C2)C3)CC1 is entered as -18.4 | 135.2 | i | 1 | 84.8 | -1.1 | -15.7
Cc1ccccc1OCC(=O)N/N=C/c1ccccn1 is entered as · | · | i | 0.82 | 100.2 | · | -3.6

Other compounds follow.
SMILES	INS promoter inh	INS promoter inh cell count	HSV replic up	HSV replic up primary fold	RGS16-Gao HTS	GALR2 ag	PKD1 kinase inh
O=C(c1ccco1)N1CCCC(c2nc(-c3ccc(S(=O)(=O)NCc4ccccc4)cc3)no2)C1 (stereo not drawn)	·	·	·	·	103.7	-0.6	-10.0
O=C(O)c1ccc(Cl)c(NC(=S)NC(=O)c2ccccc2[N+](=O)[O-])c1	·	·	i	0.9	97.2	·	-2.5
N#Cc1cc(-c2ccccc2)cn(Cc2c(Cl)cccc2Cl)c1=O	·	·	i	0.78	110.3	-2.9	6.5
CCCCCn1c(CN2CCN(Cc3ccccc3)CC2)nc2c1c(=O)[nH]c(=O)n2C	·	·	i	0.94	104.3	0.2	-12.9
COc1ccc(CCN2C(=O)C3C(C2=O)C2C=CC3C23CC3)cc1OC (stereo not drawn)	-27.3	59.4	i	1.05	87.1	·	-5.5
CCn1cc(CN(C)S(=O)(=O)c2ccc3ccccc3c2)c(C)n1	0.0	81.3	i	0.9	103.6	-0.5	-12.1
CCc1nc2cc(CC(=O)O)ccc2o1	-32.1	78.6	i	0.74	106.4	-1.3	15.1
CC12CN(C(=O)c3ccco3)CC(c3ccccc3)(CN(C(=O)c3ccco3)C1)C2=O	-31.0	70.8	i	1.04	98.6	-1.7	-2.3
CN1/C(=C\C=C2/C(=O)Oc3ccccc3C2=O)C(C)(C)c2ccccc21	-222.6	115.9	?	·	133.0	-2.8	15.7
CC1(c2ccccc2)NC(=O)N(CC(=O)N2CCOCC2)C1=O (stereo not drawn)	·	·	i	1.05	104.4	-3.0	0.9
C=CCN1C=C2C(=O)C(C)(OC(=O)C3CCCC3)C(=O)C(c3ccccc3)=C2C=C1CCCC(=O)OC (stereo not drawn)	·	·	i	0.99	102.1	·	·
Cc1noc(COc2ccccc2OCC(N)=O)c1Cl	·	·	i	0.9	100.4	-1.8	-4.8
Cc1cc(C)n(CC(=O)NN)n1	·	·	i	1.03	98.7	·	4.3
COC(=O)c1cn(C)c2ccc(S(=O)(=O)N3CC(C)CC(C)C3)cc2c1=O (stereo not drawn)	·	·	i	0.69	102.5	-3.0	0.4
CCCCNCc1cc(OCC)c(OCC)cc1Br	·	·	i	0.93	99.4	·	-1.5
COCCNC(=O)C1CC(=O)N(c2ccc(OC)cc2)C1c1ccc(OC)cc1 (stereo not drawn)	6.7	77.3	i	0.89	101.1	·	-2.1
COc1ccc(Cl)cc1NC(=S)NCCCN1CCCC1=O	·	·	i	0.95	102.9	·	2.3
CN1/C(=C\C(=S)Nc2ccccc2)C(C)(C)c2ccccc21	·	·	i	1.22	101.3	·	-7.8
Cc1ccccc1-n1c(=O)cc(N2CCCCCC2)[nH]c1=O	0.0	131.9	i	0.81	106.4	-1.4	4.1
CSc1sc(C(=O)NC(=O)NCc2ccncc2)c(C)c1-c1ccon1	·	·	i	1.08	100.3	·	·
Cc1ccn(-c2ccc([N+](=O)[O-])cc2)n1	3.9	109.1	i	0.81	112.1	-2.4	0.4
O=c1c2c(-c3cccs3)csc2ncn1-c1ccccc1	37.5	141.9	i	0.92	98.7	1.1	-5.9
CCOC(=O)c1cc2c(ccn2C)n1CC(=O)Nc1ccc(F)cc1	·	·	i	0.94	101.6	·	-1.9
CCCCCc1nc(-c2nonc2N)no1	-26.0	97.5	i	1.05	105.3	0.0	2.4
CCNC(=S)NNC(=O)c1cc(-c2ccc(OC)cc2)nc2ccccc12	41.7	139.2	i	0.76	105.5	-0.3	-1.7
COc1cc(OC)c(S(=O)(=O)NCc2cccnc2)cc1NC(C)=O	·	·	i	0.96	111.5	·	0.9
CNC(=O)COC(=O)c1cc(-c2ccc(OC)cc2)nc2ccccc12	·	·	i	1.02	98.8	·	-3.1
Clc1ccc2nc(-c3ccc(Br)s3)cn2c1	36.4	80.0	i	1.07	103.8	-0.3	-6.2
Cn1c(Cl)cnc1C(O)c1ccccc1 (stereo not drawn)	·	·	i	0.77	99.2	-2.2	15.8
COc1cc(C#N)c(N=C(SCC#N)N2CCOCC2)cc1OC	·	·	i	0.88	100.9	·	6.5
COc1ccc(-c2ccc(C#N)c(OC)n2)cc1	25.0	119.3	i	0.86	108.7	·	1.3
CC1Cc2ccccc2N1C(=O)CN1C(=O)CN(C)C(=O)c2ccccc21 (stereo not drawn)	17.4	135.5	i	0.997	96.7	0.5	-5.9
CC(C)Oc1ccc(C(=O)NCC(=O)OCC(=O)N(C)Cc2cccs2)cc1	8.3	188.5	i	0.97	102.9	·	2.6
O=C(c1ccc(C(=O)N2CCOCC2)nc1)N1CCOCC1	68.8	97.9	i	1.14	101.4	-1.2	-12.2
COCCn1c(C)cc(C(=O)COC(=O)c2ccc3ncsc3c2)c1C	-9.1	88.5	i	0.94	-52.9*	-2.2	-9.9
CCOC(=O)N1CCN(S(=O)(=O)c2ccc(C(=O)Nc3ccc(F)cc3F)cc2)CC1	·	·	·	·	100.4	-0.7	-8.2
CN(Cc1cnn(C)c1)C(=O)c1cc(COc2c(F)cccc2F)on1	8.3	114.2	i	1	103.2	·	-0.6
CCOC(=O)c1c(C)nc(C)c2c(=O)oc3ccccc3c12	·	·	i	0.84	94.9	·	8.6
CCOC(=O)c1cc2occc2n1CCCN1C(=O)c2ccccc2C1=O	31.0	103.5	i	0.89	101.0	-0.7	-4.6
CCn1c(CCNC(=O)c2cccs2)nnc1SCC(=O)Nc1nc(-c2ccccc2)cs1	-27.8	250.0	i	0.94	97.5	2.0	2.6
NC(=O)C1CCN(C(=S)NC2CC3C=CC2C3)CC1 (stereo not drawn)	·	·	i	1.01	93.5	·	·
Nc1ccccc1SCC(=O)Nc1nc(-c2ccccc2)cs1	·	·	i	1.03	103.7	·	4.3
COc1cccc(NC(=S)N2CCCN(Cc3ccc(F)cc3)C2)c1	-11.8	170.3	i	0.61	97.2	·	-4.7
COc1ccc(-n2c(C)cc(/C=C(\C#N)C(=O)NCc3ccco3)c2C)cc1	16.7	137.3	i	0.98	93.2	-0.2	-2.2
COc1ccc(N2CCN(C(=O)c3ccc4ccccc4n3)CC2)cc1	-41.2	58.0	i	0.97	100.8	·	-10.7
Cc1cc(C)c(CN2CCC(CO)(CCOc3ccccc3)CC2)cc1C	·	·	i	0.83	101.6	·	-6.6
COc1ccc(S(=O)(=O)Nc2cccc(-c3ccc4nncn4n3)c2)cc1F	·	·	i	0.81	96.6	·	-6.6
Cc1c(NC(=S)N2CCN(c3cccc(Cl)c3)CC2)c(=O)n(-c2ccccc2)n1C	·	·	i	1	100.0	·	-5.1
COc1ccc(S(=O)(=O)N2CCCCCC2)cc1C(=O)OCC(=O)NCC(C)C	8.1	87.5	i	0.94	84.5	0.4	-3.5
O=C(c1ccc2nc(-c3ccco3)c(-c3ccco3)nc2c1)N1CCN(c2ccccc2)CC1	-2.8	141.8	i	0.95	99.4	-0.9	4.3
Continuation.
SMILES	INS promoter inh	INS promoter inh cell count	HSV replic up	HSV replic up primary fold	RGS16-Gao HTS	GALR2 ag	PKD1 kinase inh
CN(CC(=O)Nc1ccc(S(=O)(=O)N2CCCC2)cc1)Cc1ccc(Cl)cc1Cl	-27.0	110.3	i	0.89	103.3	0.2	-5.9
O=C(COC(=O)c1sc2cc(Cl)ccc2c1Cl)Nc1ncc(Cl)cc1Cl	11.8	136.5	i	1.01	100.6	·	7.6
O=C(CSc1nc2c(sc3ccccc32)c(=O)n1CCCN1CCCC1)NCC1CCCO1 (stereo not drawn)	0.0	31.7	i	0.68	108.6	-0.2	-4.0
Cc1cc(C)n2c(SCC(=O)N3CCN(S(=O)(=O)c4ccc(Cl)cc4)CC3)nnc2n1	0.0	124.1	i	0.98	105.3	-2.4	-16.0
Cc1ccccc1OCc1nc(-c2ccccc2)no1	55.2	118.9	i	0.913	100.1	-2.0	1.0
C=CCc1ccccc1OCC(O)CN1CCN(Cc2ccc3c(c2)OCO3)CC1 (stereo not drawn)	15.8	63.3	i	0.9&0.93	99.1&108.9	-2.5	-2.8&-3.0
COCC(=O)Nc1nnc(SCC(=O)NCc2cccs2)s1	·	·	i	1	101.0	-0.6	-7.7
O=C(CN1CCOCC1)N/N=C/c1ccccc1	·	·	i	1.01	103.5	·	-5.0
CCOc1ccc(S(=O)(=O)N(C)c2ccc(OCC(=O)Nc3nc(-c4cc(OC)ccc4OC)cs3)cc2)cc1	·	·	i	1.11	108.9	-0.9	-6.1
CCCCc1ccc(NC(=S)NCc2ccccc2OC)cc1	·	·	i	0.6	102.3	·	5.0
CCNC(=S)N1CCN(C(c2ccccc2)c2ccccc2)CC1	·	·	i	1.04	96.4	-1.1	7.1
CCOc1ccc(N=Nc2c(N)[nH][nH]c2=O)cc1	10.0	90.3	i	0.88	99.4	0.1	-7.9
Cc1cc(C(=O)N/N=C/c2c(C)[nH]c3ccccc23)n[nH]1	·	·	i	0.86	100.3	·	·
CCOC(=O)CSc1n[nH]c(NC(=O)NC(C)C)n1	·	·	i	1.01	97.2	·	-11.1
CCC(=O)Nc1cccc(C2=NOC3(C2)C[C@@H](C(N)=O)N(C(=O)C(c2ccccc2)c2ccccc2)C3)c1 (stereo partly drawn)	·	·	i	0.81	110.2	·	·
Cn1c(=O)oc2cc(S(=O)(=O)N3CCCC(C(=O)NCC4COc5ccccc5O4)C3)ccc21 (stereo not drawn)	·	·	·	·	111.3	-1.2	-11.7
COc1ccc(S(=O)(=O)N2CCCOC2CNC(=O)C(=O)NCCCn2ccnc2)cc1 (stereo not drawn)	·	·	i	0.98	104.8	·	-10.1
CC(C)(C)Nc1scc(-c2ccccc2)[n+]1-c1ccccc1	-42.9	49.7	i	0.92	115.3	·	-1.6
O=C(NCCc1ccc(Cl)cc1)C1CCN(C(=O)c2sccc2-n2cccc2)CC1	·	·	i	0.87	112.5	-1.1	-6.3
N#C/C(=C\c1cn(Cc2ccc(C#N)cc2)c2ccccc12)C(=O)NCc1cccs1	18.4	107.4	i	0.95	104.8	1.8	-13.9
CN(C)CCCNC(=O)c1cc(C(=O)Cc2ccccc2)c[nH]1	·	·	i	0.8	107.1	·	-3.1
